# Bioassay records: PubChem, National Center for Advancing Translational Sciences (NCATS)
# VACV Venus inh – inhibitors of vaccinia virus (Venus reporter). Vaccinia virus Venus reporter expression, fluorescence. Potency, µM (series often up to 36.5 µM), inactives show at the highest dose activity change, negative = inhibition, hits mostly inhibitors. 330,000 tested, 0.46% active. AID 720580; active means well fitted inhibition curve with a large enough effect; inconclusive means small, poorly fitted or top-dose-only effect; inactive means no such curve, though single readings can be large or run the other way; tested in A549 cells; note: nearly all actives have a fitted effect of over 30% in size; inactives centre near -10
# VACV mCherry inh – vaccinia inhibition (mCherry reporter) | Vaccinia virus mCherry reporter infection, fluorescence; about a quarter of the inactives have no number | Potency, µM (highest dose often 36.5 µM), without a hit: at the top dose activity change, negative = inhibition, usual class: inhibitors | 310,000 tested, 0.63% active; active = well fitted inhibition curve with a large enough effect; inconclusive = small, poorly fitted or top-dose-only effect; inactive = no such curve, though single readings can be large or run the other way; tested in A549 cells; note: nearly all actives have a fitted effect of over 35% in size; inactives centre near -10
# * = called active by the depositor; i = inactive; ? = inconclusive; . = not tested or not shown; & = joins results of further samples; [ ] = remark or other dose. % is set by controls: 0 for no effect and ±100 for the full control effect; potency is the fitted concentration of half-maximal effect.
# Each structure is followed by: VACV Venus inh, VACV mCherry inh
> Fc1ccc(SCCc2ccccn2)cc1
 : 0%&-12%, ?
> Cc1csc(=O)n1CC(=O)OCC(=O)Nc1cc(Cl)ccc1[N+](=O)[O-]
 : -13%, i
> CC(=Nc1ccccc1C)C1=C(O)CSC1=O
 : -1%, -2%
> CCOc1cc(C(=O)O)cc(Cl)c1OC
 : -22%, .
> CCOc1ccccc1C(=O)Nc1nccs1
 : -11%, .
> COc1ccc(CNC(=O)CSc2n[nH]c(-c3ccc(OC)cc3)n2)cc1
 : -29%, ?
> O=C(NCCC1CCCCN1S(=O)(=O)c1cccs1)C(=O)Nc1ccc(F)cc1F (configuration not stated)
 : -27%, ?
> Cc1ccc(NC(=O)c2c(Cl)nc3ccccn23)cc1
 : -17%, i
> C=CCN1C(=O)/C(=C/c2ccc(OCC(=O)O)cc2)S/C1=N/c1nccs1
 : -10%, i
> COc1cccc(NC(=O)CSc2nnc3ccc(-c4ccncc4)nn23)c1
 : -10%, i
> Fc1ccccc1-n1ncc2c1ncn1nc(COc3ccc(Cl)cc3)nc21
 : -5%, -13%
> Cc1ccc(C(=O)N2CCCC(C(=O)c3ccc(Oc4ccccc4)cc3)C2)cn1 (configuration not stated)
 : -9%, -11%
> C/C(=N\NC(=O)Cn1nc(C)c([N+](=O)[O-])c1C)c1ccc(Cl)s1
 : 0%, -6%
> CCOC(=O)c1c(S(=O)(=O)N2CCC(C(=O)Nc3ccc(C)cn3)CC2)c(C)n(C)c1C
 : 4%, 0%
> CC(=O)c1ccc2c3c(cc(C)c2c1)CCCC3
 : -6%, -25%
> CN1CCN(Cc2cn[nH]c2-c2ccc(F)cc2F)[C@@H](c2ccccc2)C1
 : -16%, -12%
> COc1cc(-c2nnc(CSc3nnc(Nc4ccc(C(C)C)cc4)s3)o2)cc(OC)c1OC
 : ?, ?
> CC(C)CCNC(=O)c1cccc(C(=O)NCCC(C)C)c1
 : -15%, i
> CS/C(=C\C(=O)c1ccco1)Nc1ccccc1Cl
 : -4%, i
> CC(C)C(C)NC(=O)CN1C(=O)NC2(CCc3ccccc3C2)C1=O (configuration not stated)
 : -1%, i
> CCn1c(=O)cc(OCC(=O)N2CCN(c3ccc(F)cc3)CC2)c2ccccc21
 : 19%&-4%, -9%
> CCN(c1ccccc1)S(=O)(=O)c1ccc(Cl)c(NC(=O)COC(=O)c2ccc[n+]([O-])c2)c1
 : -1%, -4%
> COC(=O)c1cc2occc2n1CC(=O)Nc1cccc(SC)c1
 : -9%, -12%
> O=C(Nc1cccc(F)c1)N1CCC(n2c(=O)[nH]c3ccccc32)CC1
 : -13%, -1%
> COC(=O)[C@@]12CCCCN1[C@H](c1ccc(-c3ccc(F)cc3)cc1)[C@H]1C(=O)N(C)C(=O)[C@H]12
 : -29%, -13%
> Cc1cc(C(=O)C(=O)N(C)C)c(C)n1-c1ccc(Cl)c(Cl)c1
 : -22%, -4%
> CNC(=S)N1CC2CC(C1)c1cccc(=O)n1C2 (configuration not stated)
 : -21%, i
> CCCCCC(=O)c1c(C)[nH]c(C(=O)OCC)c1C
 : -24%, -13%
> Cc1cccc(N2CC(C(=O)Nc3ccc(S(=O)(=O)N4CCCCC4)cc3)CC2=O)c1C (configuration not stated)
 : -15%, i
> Cc1ccc(-n2nnc3c(=O)n(CC(N)=O)cnc32)cc1
 : 3%, -14%
> O=C(COc1ccc2c(c1)OCO2)Nc1ccccc1C(F)(F)F
 : 0%, -4%
> COc1ccc(N(CC(=O)NCCc2ccc(Cl)cc2)S(=O)(=O)c2c(C)nn(C)c2C)cc1
 : -7%, -6%
> C[C@@]12C(=O)N(c3cccc(Cl)c3)C(=O)N1[C@H](c1ccc(Cl)cc1)[C@@H]1C(=O)N(C3CCCCC3)C(=O)[C@@H]12
 : ?, ?
> COc1ccc(N2C(=O)CC(Sc3n[nH]c(-c4ccc(C)cc4)n3)C2=O)cc1 (configuration not stated)
 : 10%, i
> CCC(C)(C)NC(=O)/C=C/c1cc(OC)c(OC)c(S(=O)(=O)N2CCc3ccccc32)c1
 : -9%, -21%
> CN(C(=O)CSc1nc(-c2ccccc2)no1)c1ccc(F)cc1
 : -9%, -13%
> CCn1c(=O)c([N+](=O)[O-])c(Cl)c2ccccc21
 : 0%, -4%
> CCn1cc(-c2cc(C(F)(F)F)n3nc(C(=O)O)cc3n2)c(C)n1
 : -8%, .
> CNC(=O)C1CCN(c2nc3ccccc3nc2C(F)(F)F)CC1
 : -6%, -7%
> Cc1nn(-c2ccccn2)c2c1C(c1ccccc1Cl)C1=C(N2)c2ccccc2C1=O (configuration not stated)
 : -10%, -12%
> Cc1cc(NC(=O)CSc2nnc(N)s2)c([N+](=O)[O-])cc1C
 : -11%, -18%
> O=C1NC[C@H](Cc2ccccc2)N(CC2CCN(CCc3ccccc3)CC2)C1=O
 : -10%, i
> Cc1ccc(NC(=O)CN(C)S(=O)(=O)c2ccc3[nH]c(=O)oc3c2)c(C)c1
 : 23%[7.34 µM], 7%[7.34 µM]
> Cc1[nH]c2ccccc2c1/C=C/c1cnc2ccccc2n1
 : 15%, -2%
> CCN(CC)C(=O)Cn1cc(C(=O)C(=O)NCc2ccco2)c2ccccc21
 : -4%, i
> O=C(c1cc(Cl)cc(Cl)c1)N1Cc2ccccc2-n2nncc2C1
 : -15%, -16%
> CCc1ccc(-c2nn[nH]n2)cc1
 : -5%, -13%
> Cc1cc(C)c(C)c(S(=O)(=O)N2CCN(C(=O)C3CSC4(C)CCC(=O)N34)CC2)c1C (configuration not stated)
 : -16%, -19%
> CCOC(=O)CNC(=O)CSc1nc2cccnc2n1C
 : -3%, -11%
> COc1ccc(CNC(=O)CN2CCN(S(=O)(=O)c3cc(Br)ccc3Br)CC2)cc1OC
 : -26%, -8%
> O=C(c1ccc(SCc2ccco2)c([N+](=O)[O-])c1)N1CCOCC1
 : -11%, -6%
> COc1ccc(OC)c2[nH]c(=O)c(CCNC(=O)c3ccc(Br)o3)cc12
 : -14%, i
> COc1ccc(NC(=O)c2cnc(N3CCCC3)nc2)cc1OC
 : 1%, -5%
> O=C1NC2(CCCCC2)C(=O)N1CC(=O)N(Cc1ccccc1)c1ccccc1
 : -9%, -6%
> COC(=O)C1CCN(c2csc3ccc(C)cc3c2=O)CC1
 : -7%, -2%
> CNc1ccc2oc(C[C@H]3O[C@@]4(CC[C@H]3C)O[C@H]([C@H](C)C(=O)c3ccc[nH]3)[C@H](C)C[C@H]4C)nc2c1C(=O)O
 : 2.5µM*, 3.5µM*
> O=C1N=C2SCCN2/C1=C\c1ccc(Cl)cc1
 : -18%, -24%
> Cn1nnnc1SCCNCc1ccc(F)cc1
 : 0%, -2%
> CCOc1ccc(-n2c(=S)sc3c(=O)[nH]c(SCC(=O)NC(C)CC)nc32)cc1 (configuration not stated)
 : -2%, -6%
> O=C(CNC(=O)c1ccc(Cl)cc1)NCCCn1ccnc1
 : -6%, -15%

# (next part)
molecule	VACV Venus inh	VACV mCherry inh
CN1CC(CO)=C[C@H]2c3cccc4[nH]cc(c34)C[C@H]21	60%[activator]	40%[activator]
COc1ccc(CCN(C(=O)c2ccc(F)cc2)C2=CC3CCC(C2)N3C)cc1OC (configuration not stated)	-1%	-20%
COc1ccc(-c2noc(C3CC(=O)N(c4ccccc4)C3)n2)c(OC)c1 (configuration not stated)	12%	4%
CCOC(=O)Cn1c(=O)c2c(nc3n2CCN3c2ccc(CC)cc2)n(C)c1=O	-13%	i
CCCOc1ccc(C(=O)Nc2ccc(S(=O)(=O)NC3=NCCCCC3)cc2)cc1	?	8.9µM*
N=C1/C(=C\c2ccc(OC(=O)c3ccco3)cc2)C(=O)N=C2SC(N3CCCCC3)=NN12	-11%	-14%
CSCCC(NS(=O)(=O)c1ccc(Cl)cc1)C(=O)OCC(=O)NC12CC3CC(CC(C3)C1)C2 (configuration not stated)	-6%	-4%
CSCc1cc(N2CCOCC2)nc(-c2ccccc2)n1	-3%	-23%
O=C(CNc1ccc2ccccc2c1)N/N=C/C=C/c1cccc([N+](=O)[O-])c1	-23%	-13%
C[C@]12CCC3C(CC[C@@H]4C[C@H](O)CC[C@]34C)C1CCC2=O (some centres not stated)	-8%	-7%
COc1ccc(NC(C)C(=O)N/N=C/c2c(O)ccc3ccccc23)cc1 (configuration not stated)	-18%	?
NC(=O)C1CCN(C(=O)c2ccc3nc(-c4ccccc4)c(-c4ccccc4)nc3c2)CC1	0%	-12%
COc1cccc(NS(=O)(=O)c2ccc3[nH]cc(C(=O)NCCCOC(C)C)c(=O)c3c2)c1	-15%	-25%
COc1ccc(OCC(O)CNc2ccc(Br)cc2)cc1 (configuration not stated)	-9%	?
COc1cccc(NC(=O)C2CCN(S(=O)(=O)c3ccc4[nH]c(=O)ccc4c3)CC2)c1	-22%	i
CC(NC(=O)c1ccncc1)c1ccc(Br)cc1 (configuration not stated)	17%	15%
COc1ccc(CCNC(=O)Cc2ccc3c(c2)OCO3)cc1OC	-13%	-16%
c1cncc(CN=C2Nc3ccccc3CS2)c1	-1%	0%
COC(=O)/C(=C1\Oc2ccc(C(C)(C)C)cc2S1)C(F)(F)F	-9%	-2%
COc1cccc(NC(=O)CSc2nc3ccccc3c3nc4ccccc4n23)c1	2%	0%

# Some of these compounds in order of length of the SMILES, high to low:
molecule	VACV Venus inh	VACV mCherry inh
CSCCC(NS(=O)(=O)c1ccc(Cl)cc1)C(=O)OCC(=O)NC12CC3CC(CC(C3)C1)C2 (configuration not stated)	-6%	-4%
N=C1/C(=C\c2ccc(OC(=O)c3ccco3)cc2)C(=O)N=C2SC(N3CCCCC3)=NN12	-11%	-14%
COc1cccc(NC(=O)C2CCN(S(=O)(=O)c3ccc4[nH]c(=O)ccc4c3)CC2)c1	-22%	i
NC(=O)C1CCN(C(=O)c2ccc3nc(-c4ccccc4)c(-c4ccccc4)nc3c2)CC1	0%	-12%
O=C(CNc1ccc2ccccc2c1)N/N=C/C=C/c1cccc([N+](=O)[O-])c1	-23%	-13%
CCCOc1ccc(C(=O)Nc2ccc(S(=O)(=O)NC3=NCCCCC3)cc2)cc1	?	8.9µM*
COc1ccc(-c2noc(C3CC(=O)N(c4ccccc4)C3)n2)c(OC)c1 (configuration not stated)	12%	4%
COc1ccc(NC(C)C(=O)N/N=C/c2c(O)ccc3ccccc23)cc1 (configuration not stated)	-18%	?
CN1CC(CO)=C[C@H]2c3cccc4[nH]cc(c34)C[C@H]21	60%[activator]	40%[activator]
COc1ccc(CCNC(=O)Cc2ccc3c(c2)OCO3)cc1OC	-13%	-16%
CSCc1cc(N2CCOCC2)nc(-c2ccccc2)n1	-3%	-23%
CC(NC(=O)c1ccncc1)c1ccc(Br)cc1 (configuration not stated)	17%	15%
c1cncc(CN=C2Nc3ccccc3CS2)c1	-1%	0%

# The list goes on:
molecule	VACV Venus inh	VACV mCherry inh
COc1ccc(Nc2c3c(nc4ccccc24)CCC3)cc1Cl	?	?
O=C(Nc1cccc(O)c1)c1cc(-c2ccc3c(c2)OCO3)on1	-13%	i
COC(=O)c1ccc2nc(-c3ccccc3)c(Cc3ccsc3)n2c1	-5%	-14%
CN(CC(=O)NCc1cccnc1)S(=O)(=O)c1ccc(F)cc1	-8%	i
CC(C)(C)c1ccc(C(=O)Nc2ccc(OCc3cc(=O)n4ccsc4n3)cc2)cc1	7%	6%
N=c1sccn1CC(=O)Nc1ccc(Cl)c(S(=O)(=O)N2CCOCC2)c1	-2%	.
Cc1cc(C)cc(N2C(=O)c3nccnc3C2=O)c1	-3%	i
C#CCN1C(=O)C(O)(CC(=O)c2ccc3c(c2)OCCO3)c2ccccc21 (configuration not stated)	4%	5%
CC(C)C(=O)Nc1nnc(S(=O)(=O)N2CCCCCC2)s1	-3%&-8%	-8%
OCC(O)/C=N/Nc1nc(Nc2ccccc2)nc(Nc2ccccc2)n1 (configuration not stated)	-14%	?
O=C(N1CCN(c2ccccc2)CC1)C(F)(F)C(F)F	-6%	-18%
COc1ccc(-c2onc(C)c2C)cc1S(=O)(=O)N1c2ccccc2CC1C (configuration not stated)	?	-12%
Cc1nnc2ccc(-c3cccc(C(F)(F)F)c3)nn12	-14%	-13%
Cc1ccccc1NC(=O)COc1cccc2c1CCNC2=O	-5%	i
COc1cc(C2C(C#N)=C(SC)NC3=C2C(=O)CCC3)ccc1O (configuration not stated)	-5%	-19%
COCCCn1c(=O)c2ccccc2n(Cc2ccccc2C)c1=O	-12%	-14%
CCCCc1nnc(NC(=O)C2CCN(c3ncnc4sc(C)c(C)c34)CC2)s1	-11%	i
CC1(Cc2ccc(Cl)cc2)C(=O)Nc2ccc(-c3ccc(F)c(Cl)c3)cc21 (configuration not stated)	-20%	i
Cc1cc(SCC(=O)OCC(=O)NC(C)c2ccccc2)c(C)cc1Br (configuration not stated)	6%	-18%
O=C(NCCN1CCOCC1)c1ccc2c(c1)ncn2C1CCCC1	-4%	-13%
Cc1ccc(-n2c3c(c(=O)[nH]c2=O)C(NC(=O)c2ccccc2F)(C(F)(F)F)C(=O)N3)cc1C (configuration not stated)	7%	7%
Cc1ccc(CN2CCN(C3CCN(S(=O)(=O)N(C)C)CC3)C(=O)C2=O)cc1	1%	-9%
Cc1ccc(O)c(NC(=O)c2cc([N+](=O)[O-])ccc2Cl)c1	?	?
O=C(O)C(=O)/C(=C\c1cccc2ccccc12)c1ccc2ccccc2n1	-12%	-13%
CC(C)(C)NC(=O)C(c1ccccc1)N(C(=O)C1CSC(=O)C1)c1ccccc1 (configuration not stated)	-13%	-14%
COc1ccccc1NC(=O)Nc1nc(CC(=O)NCc2ccc(F)cc2)cs1	?	?
Cc1ccc(/C=N/NC(=O)c2csc3c2CCCC3)cc1	-26%	-18%
COc1ccc([N+](=O)[O-])cc1NCc1cccc([N+](=O)[O-])c1	10µM*	?
